MARV entry inh – Marburg virus entry inhibition; Potency, µM (series often up to 49.2 µM), for the others: at the highest dose activity change, negative = inhibition, actives largely listed as inhibitors; 18,000 compounds, 6.5% hits; Marburg virus pseudotype entry/binding inhibition, cell-based; control for the full effect not named in the record; many of its hits are not listed in these tables; active means well fitted inhibition curve with a large enough effect; inconclusive means small, poorly fitted or top-dose-only effect; inactive means no such curve, though single readings can be large or run the other way; tested in HEK293 cells; also: luciferase read-out
LASV entry inh – inhibitors of Lassa virus binding or entry into cells | 18,000 compounds, 4.1% hits | Lassa virus pseudotyped entry inhibition, cell-based qHTS; control for the full effect not named in the record; many of its hits are not listed in these tables | AID 720533 | Potency, µM (titrated, usually from 49.2 µM), for the others: top-dose activity change, negative = inhibition, most hits filed as inhibitors; active = well fitted inhibition curve with a large enough effect; inconclusive = small, poorly fitted or top-dose-only effect; inactive = no such curve, though single readings can be large or run the other way; tested in HEK293 cells; also: luciferase read-out
Active calls of the source: *; ? = inconclusive; / = no result given; & = joins results of further samples; ! = a repeat was not active; [ ] = remark or other dose. % is scaled to controls: 0 for no effect and ±100 for the full control effect; potency is read from the fitted curve at half-maximal effect. No enrichment for hits; any-hit rate near 7.3%.

Molecule	MARV entry inh	LASV entry inh
CCCCCCN1C[C@@H](n2cc(-c3ccc(F)cc3)nn2)[C@H](O)C[C@H]1c1ccccc1	?	?
COc1cccc(C(=O)NCc2nc(-c3cccc(NC(=O)c4ccoc4C)c3)oc2C)c1	?	?
Cc1cc(F)c(Nc2ncnc3cc(OCc4ccccc4)ccc23)cc1O	1%	-9%
C[C@@H]1C=CCCO[C@]12C(=O)N(CC1CC1)c1ccccc12	53%[activator][8.59 µM]	33%[8.59 µM]
C#C[C@]1(O)CC[C@@H]2[C@H]3CCc4cc(OC)ccc4[C@@H]3CC[C@@]21C	20%[17.8 µM]	-7%[17.8 µM]
c1ccc(CNc2oc(-c3ccccc3)nc2-c2cccc3ccccc23)cc1	0%	-13%
CCCC(=O)c1cc(O)c(O)cc1O	?	-12%[107 µM]
O=C(NCCc1c[nH]c2ccccc12)c1ccccc1O	26%	-10%
N#Cc1cccc(-c2cncnc2-n2ccnc2)c1	-11%	-5%
CCN1CCC[C@H]1CNC(=O)c1c(O)c(Cl)cc(Cl)c1OC	14%&-23%	-2%&-2%
Cc1ccc(C(=O)Nc2ccc(S(=O)(=O)O)c3cc(S(=O)(=O)O)cc(S(=O)(=O)O)c23)cc1NC(=O)c1cccc(NC(=O)Nc2cccc(C(=O)Nc3cc(C(=O)Nc4ccc(S(=O)(=O)O)c5cc(S(=O)(=O)O)cc(S(=O)(=O)O)c45)ccc3C)c2)c1	3.1µM*!	-23%&-4%&3%
O=C1CCO1	-11%&2%	9%&6%
CC[C@H](C)[C@H](NC(=O)[C@H](CC(=O)O)NC(=O)[C@H](CC(C)C)NC(=O)[C@H](Cc1cnc[nH]1)NC(=O)[C@H](C)NC(=O)[C@H](Cc1ccccc1)NC(=O)[C@H](Cc1ccc(O)cc1)NC(=O)[C@@H](NC(=O)[C@H](C)NC(=O)[C@H](CCC(=O)O)NC(=O)[C@H](CCCCN)NC(=O)[C@H](CC(=O)O)NC(=O)[C@H](CCSC)NC(=O)[C@H](CC(C)C)NC(C)=O)C(C)C)C(=O)N[C@H](C(=O)N[C@@H](Cc1c[nH]c2ccccc12)C(=O)O)[C@@H](C)CC	2%	-1%
NC(=O)NNc1ccccc1	-4%&-10%	-15%&3%
COc1ccc2c(c1)[C@@]13CCCCC1[C@@H](C2)N(C)CC3 (stereo partly specified)	8.9µM*	?
CCN(CC)CCOC(=O)C1(c2ccc([N+](=O)[O-])cc2)CCCC1	?	2%
COc1cccc([C@@H]2Oc3ccc(OC)cc3C(=O)[C@@H]2OC(=O)Nc2cc(OC)c(OC)c(OC)c2)c1	13%[8.59 µM]	3%[8.59 µM]
CCCCCCCCCc1ccc(OCCOCCO)cc1	?	11µM*
CCS(=O)(=O)Nc1cc(C(=O)N2C[C@@H](C)O[C@@H](C)C2)c2c(c1)nc(-c1ccccc1)n2C	11%	3%
CC(C)C[C@H]1COc2c(Cl)cccc2S(=O)(=O)N1	16%	4%
COCC=CC1=CC2=CC(=O)C(C)(OC(=O)c3cnc4ccccc4n3)C(=O)C2=CN1CC(C)C (stereo unspecified)	7%[8.59 µM]	7%[8.59 µM]
Cc1oc(-c2ccccc2NC(=O)C2CCCO2)nc1CNC(=O)c1cc(Cl)ccc1F (stereo unspecified)	-15%	-3%
Cc1ccc(Sc2ccccc2CN(C)C)c(N)c1	?	6%
c1ccc2sc(C3(N4CCCC4)CCCCC3)cc2c1	6.3µM*	1%
COc1ccc2c(C)cc(=O)oc2c1	2%	-7%
O=C(Cn1cccn1)N1CCOc2c(cc(-c3ncc(C(F)(F)F)cc3Cl)cc2OCC2CCCO2)C1 (stereo unspecified)	-2%	-12%
CCCCc1cc2c(cn1)C(=O)C(C)(OC(C)=O)C(=O)C2 (stereo unspecified)	-34%[8.59 µM]	/
O=C(/C=C/c1ccc(O)c(O)c1)OC(Cc1ccc(O)c(O)c1)C(=O)O (stereo unspecified)	8.9µM*	-5%&25%
CC(=O)OC[C@H]1O[C@H](CCON=C(C)CCN2CCCCc3nc(C)c(C)cc32)C=C[C@H]1OC(C)=O	16%[8.59 µM]	-4%[8.59 µM]
C[C@H](NC(=O)[C@@H](N)Cc1ccc(O)cc1)C(=O)NCC(=O)N(C)[C@@H](Cc1ccccc1)C(=O)N[C@H](CO)CCS(C)=O (stereo partly specified)	5%	-1%
CN1CCN(C2CN(CCc3ccccc3)S(=O)(=O)C2)CC1 (stereo unspecified)	19%	13%
COc1ccc2[nH]cc(CCNc3ccnc(-c4cccc(NS(C)(=O)=O)c4)n3)c2c1	-25%	-1%
COc1ccccc1N1CCN(c2nc(CNC(=O)C3CC34CCCC4)nc3ccccc23)CC1 (stereo unspecified)	?	32µM*
CCc1noc(C)c1C(=O)NCCN1Cc2cc(OC)ccc2OC(CC)C1 (stereo unspecified)	8%	-8%
COc1ccc(OC)c(CN2CCC3(CCC(CNC(=O)c4ccco4)O3)CC2)c1 (stereo unspecified)	?	-7%
CCCCCc1c2c(cc(O)c1C(=O)O)OC(=O)c1c(cc(OC)cc1C(=O)CCCC)O2	4%	0%
CCN(CC)c1nc(C)cc(OP(=S)(OC)OC)n1	1%	-21%
COc1ccccc1-c1cc2c(c3c1ccn3C)C1CCC2C1 (stereo unspecified)	-12%	11%
COC[C@@H](OC(C)=O)[C@H]1OCc2ccccc2[C@H]1C=Cc1ccccc1	1%[8.59 µM]	-4%[8.59 µM]
CC(=O)NCC(=O)N[C@H](CCC(=O)O)C(=O)O	5%&16%	3%&3%
CCc1nc2cc(C(=O)N(C)CC3COCCO3)cc(NC(=O)c3ccccc3OC)c2n1C (stereo unspecified)	3%	-14%
N#CC(C#N)=Cc1ccc([N+](=O)[O-])c(O)c1	16µM*!	?
CC(NC(=O)c1ccco1)c1nnc2n1CCN(Cc1ccc(Cl)cc1)CC2 (stereo unspecified)	-26%	2%
O=C1[C@@H]2[C@H]3[C@H](O)[C@H](O)CC(=NOC[C@@H](O)COCc4ccco4)[C@@H]3CC[C@H]2C(=O)N1C1CCCCC1	-22%[8.59 µM]	1%[8.59 µM]
CCCCCCCC1=CC2=CC(=O)C(C)(OC(C)=O)C(=O)C2=CN1CCc1ccccc1 (stereo unspecified)	-2%[8.59 µM]	17%[8.59 µM]
Cc1cccnc1-c1cccc2c1OC(CNC(=O)Cc1c(C)noc1C)C2 (stereo unspecified)	-1%	-2%
CN1C(=O)CCS(=O)(=O)[C@H]1c1ccc(Cl)cc1	7%	3%
COC/C=C/C1=CC2=CC(=O)C(C)(OC(=O)c3cnc4ccccc4n3)C(=O)C2=CO1 (stereo unspecified)	14%	5.6µM*
Cc1cccc(CN2CCc3nnc(C(C)NC(=O)C4CCOCC4)n3CC2)c1 (stereo unspecified)	10%	-5%
CCOC(=O)c1ccc(O)cc1	13%	7%
COC(=O)NC(/C=C/c1ccccc1)C(C(C)=O)C(=O)OC (stereo unspecified)	19%	-4%
COc1cccc(-c2cncnc2-n2ccnc2)c1	27%	42%[activator]
CC(C)=CCc1c2c(c(O)c3c(=O)c(O)c(-c4ccccc4)oc13)C=CC(C)(C)O2	3%	?
COc1ccc2c(c1)c(CC(=O)NCc1ccc3c(c1)OCO3)c(C)n2C(=O)c1ccc(Cl)cc1	?	-13%
CCOC(=O)C1CSCCS(=O)(=O)N1Cc1ccc(F)cc1F (stereo unspecified)	9%	/
Cc1ncc2c(c1CNC(=O)c1cncs1)CCN(C(=O)c1ccc(-c3ccccc3)cc1)C2	-12%	?
COc1cccc([C@@H]2Oc3ccc(Br)cc3C[C@H]2OC(=O)Nc2ccc(OC(F)F)cc2)c1	9%	?
Cc1c(C)c2c(c(C)c1OC(=O)c1cccnc1)CC[C@@](C)(CCC[C@H](C)CCC[C@H](C)CCCC(C)C)O2	4%&10%	7%&-16%
CC(C)C[C@H](NC(=O)CNC(=O)[C@H](CCC(N)=O)NC(=O)[C@H](Cc1ccc(O)cc1)NC(=O)[C@@H](NC(=O)[C@H](Cc1ccc(O)cc1)NC(=O)CNC(=O)[C@@H](N)CCCN=C(N)N)C(C)C)C(=O)O	10%	6%
CNc1nc(-c2ccccc2C(F)(F)F)nc2ccccc12	4%	0%

Some of the entries above in a different format.
Order of values: MARV entry inh | LASV entry inh
Cc1oc(-c2ccccc2NC(=O)C2CCCO2)nc1CNC(=O)c1cc(Cl)ccc1F (stereo unspecified)
  -15% | -3%
Cc1ccc(Sc2ccccc2CN(C)C)c(N)c1
  ? | 6%
c1ccc2sc(C3(N4CCCC4)CCCCC3)cc2c1
  6.3µM* | 1%
COc1ccc2c(C)cc(=O)oc2c1
  2% | -7%
O=C(Cn1cccn1)N1CCOc2c(cc(-c3ncc(C(F)(F)F)cc3Cl)cc2OCC2CCCO2)C1 (stereo unspecified)
  -2% | -12%
CCCCc1cc2c(cn1)C(=O)C(C)(OC(C)=O)C(=O)C2 (stereo unspecified)
  -34%[8.59 µM] | /

Additional entries.
SMILES | MARV entry inh | LASV entry inh
CCOC(=O)c1ccc(C#Cc2ccc3c(c2)C(C)(C)CCS3)nc1 | 5% | -23%
COc1ccc2c(c1)OCC(Cc1ccc(O)c(OC)c1)C2=O (stereo unspecified) | 99%[activator] | 87%[activator]
CNC(=O)c1c(I)c(C(=O)NCC(=O)Nc2c(I)c(C(=O)O)c(I)c(C(=O)NCCO)c2I)c(I)c(N(C)C(C)=O)c1I | 26% | 3%[17.8 µM]
CCO[C@@H]1O[C@H](C(COCc2ccccc2)OCc2ccccc2)[C@H](OCc2ccccc2)[C@H]1O (stereo partly specified) | 6%[17.8 µM] | ?
Cc1cnc(-n2ncc(C(=O)N[C@H]3CCCCNC3=O)c2C2CC2)nc1-c1cccs1 | -4% | -7%
COc1cc(CC(C)N)cc(OC)c1OC (stereo unspecified) | -7%[107 µM] | -13%[107 µM]
COC(=O)N1C2=C(c3ccccc3[C@@H]1CC(=O)O)[C@@H]1O[C@@H](C2)c2ccccc21 | ? | -14%[8.59 µM]
O=C(NCc1cccnc1)c1cnn(-c2nccc(-c3cccs3)n2)c1C1CC1 | -8% | -9%
CN(C)CCc1c[nH]c2ccc(CS(=O)(=O)N3CCCC3)cc12 | -10% | -1%
CCCCOc1cc(CC2CNC(=O)N2)ccc1OC (stereo unspecified) | 1%&7% | -5%&3%
COCCNc1nc(-c2ccccc2CN(C)C)nc2ccccc12 | 13µM* | -24%
CO[C@@H]1[C@@H](O[C@@H]2O[C@H](C)[C@@H](O[C@H]3C[C@@](C)(O)[C@@H](O)[C@H](C)O3)[C@H](N(C)C)[C@H]2O)[C@@H](CC=O)C[C@@H](C)[C@@H](O[C@@H]2CC[C@H](N(C)C)[C@@H](C)O2)/C=C/C=C/C[C@@H](C)OC(=O)C[C@H]1O | ? | 10%[17.8 µM]
CO/N=C(\C(=O)N[C@@H]1C(=O)N2C(C(=O)OCOC(=O)C(C)(C)C)=C(/C=C\c3scnc3C)CS[C@H]12)c1csc(N)n1 | -24% | -12%
COc1ccc(-c2nc3cc(F)ccc3cc2CN(C(=O)c2cccc(OC)c2)C2CC2)cc1 | -19% | 2%
CC[C@@H](C)[C@@H](CO[C@@H](Cc1ccccc1)C(=O)N[C@@H](CCS(C)(=O)=O)C(=O)OC(C)C)NC[C@@H](N)CS | 10µM* | -19%&6%
CCC1(c2ccc(OC)cc2)NC(=O)N(C)C1=O (stereo unspecified) | -1% | 1%
CCCCCCCc1cc2ccccc2c2c(C(C)=O)c(-c3ccccc3)c(C(=O)OC)n12 | -16%[8.59 µM] | 6%[8.59 µM]
NC(N)=NCCCCCCCCCCN=C(N)N | ? | ?
CC1=C(O)C(=O)C=C2C1=CC=C1[C@]2(C)CC[C@@]2(C)C3C[C@](C)(C(=O)O)CC[C@@]3(C)CC[C@@]12C (stereo partly specified) | 4µM* | 4.5µM*
O=S(=O)(CCc1ccccc1)c1ccccc1 | -18% | -2%
CCCC=CC1C(=O)[C@@H]2O[C@H]2C2(OCC(CC)(CC)CO2)C1CO (stereo partly specified) | -11%[8.59 µM] | 0%[8.59 µM]
CC(C)[C@@H](CC(=O)N[C@@H]1CCNC[C@H]1C(=O)N[C@H](CC(=O)N[C@@H](CCC(=O)O)CC(=O)O)Cc1ccccc1)NC(=O)C[C@H](Cc1c[nH]c2ccccc12)NC(=O)[C@@H]1CCCC[C@H]1N | 24% | -4%
COc1cc(=O)n2c(c1C(=O)N(C)Cc1nonc1C)CCN(Cc1c(F)cccc1F)CC2 | -14% | 11µM*
COc1ccc(-c2cc(=O)c3c(OC(C)=O)cc(OC(C)=O)cc3o2)cc1 | ? | 1%
CC(=O)OCC1OC(Oc2cc(OC(C)=O)c3c(=O)cc(-c4ccc(OC(C)=O)cc4)oc3c2)[C@@H](OC(C)=O)C(OC(C)=O)C1OC(C)=O (stereo partly specified) | ? | -17%
CC(C)(C)OC(=O)NCCCCCO | 12% | 8%
CN(C)CCOc1ccc(/C(=C(/CCCl)c2ccccc2)c2ccccc2)cc1 | ? | -30%
Cc1ccc(S(=O)(=O)N2CCC(=O)N(CCOC(=O)Nc3cc(C)cc(C)c3)CC2)cc1 | -10% | 4%
C=CCN1CCN(c2nc3ccccc3nc2C#N)CC1 | ? | -4%&-12%
